# WNV protease inh: WNV NS2B-NS3 proteinase inhibition | P06935 | WNV NS2B-NS3 protease, fluorogenic substrate Ex360/Em465; hits give low values | z-score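 (tested at a level between 10 and 100 µM)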 | actives 0.18% (n = 65,000);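 active = z-score at -3 or under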;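 also: score is relative to mean and spread of the compound wells of a plate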
# Target sequence (P06935 1371-1501 limits assumed): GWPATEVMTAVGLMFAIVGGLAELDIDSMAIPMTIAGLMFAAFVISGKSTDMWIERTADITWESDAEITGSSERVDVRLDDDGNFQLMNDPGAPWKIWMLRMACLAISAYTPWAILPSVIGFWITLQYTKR
# Target sequence (P06935 1502-1679 limits assumed): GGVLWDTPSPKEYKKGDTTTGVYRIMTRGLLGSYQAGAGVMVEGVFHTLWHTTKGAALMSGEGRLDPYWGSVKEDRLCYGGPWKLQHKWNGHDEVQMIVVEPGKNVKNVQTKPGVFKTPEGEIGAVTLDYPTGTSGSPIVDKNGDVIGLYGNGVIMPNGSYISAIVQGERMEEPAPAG
# MT1-MMP promoter: MT1-MMP gene expression reporter suppression – cell-based, luciferase reporter, luminescence (AID 618); calls from a first round at 10 µM; hits with a dose series show EC50 in µM; actives 0.62% (n = 87,000); MT1-MMP promoter luciferase reporter cells, luminescence;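 active = over half of the reporter light lost at 10 µM or EC50 under 50 µM; inactive = the rest and hits that failed the dose series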;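 also: actives suppress MT1-MMP promoter-driven transcription so potencies describe inhibitors; HT1080 fibrosarcoma cells; overnight exposure; toxic or luciferase-blocking compounds were not removed from the actives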
# Hsc70 ATP site: small molecules displacing fluorescent ligand from Hsc70 – biochemical, fluorescence polarization, primary screen (AID 568) | Hsc70 fluorescence polarization, probe displacement; higher % means a stronger effect; strong numbers were not always called active | one-dose displacement, % at 20 µM; IC50 in µM for titrated hits | 83,000 tested, under 10 active;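 active = displacement above 50% without optical interference and an IC50 on retest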;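 also: ATPase domain with a fluorescein-tagged ATP probe; 0% = vehicle and 100% = excess ADP; read after one hour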
# Active calls of the source: *; i = inactive; · = no result given; + = active, no number. Only part of the results is shown, so the mix of outcomes need not match the whole.
SMILES,WNV protease inh,MT1-MMP promoter,Hsc70 ATP site
O=C(CSc1nc(N2CCCCC2)nc(N2CCCCC2)n1)c1ccccc1,-0.21,i,-4.2%
CC(C)OC(=O)CN1C(=O)C(C)(C)Oc2ccc(C(=O)NC3CC3)cc21,-0.35,i,1.7%
O=C(CSc1nc(O)c(Cc2ccccc2F)c(=O)[nH]1)N1CCCCCC1,-1.6,i,3.7%
COCC(=O)N(Cc1ccc(OC)cc1)Cc1nc2ccccc2c(=O)[nH]1,0.95,i,-4.6%
CCCS(=O)(=O)c1c(S(=O)(=O)CCC)c2c3ccccc3ccn2c1C(N)=O,1.3,i,0.2%
N#C/C(=C(/O)CN1CCOCC1)c1nc2ccccc2s1,0.08,i,-1.2%
COc1ccc(NC(=O)C2CCCN2c2ccc(OC)c(OC)c2)cc1OC (stereo unspecified),-0.14,i,1.0%
Cc1c(C(=O)CN2CCOCC2)[nH]c2ccccc12,-0.94,i,-4.3%
COc1ccc(Cn2nnnc2C(c2cccs2)N2CCOCC2)cc1 (stereo unspecified),0.41,i,3.4%
C=CC[N+](C)(C)C/C(Cl)=C(\Cl)c1ccccc1,·,i,-2.2%
Cc1cccc(C)c1OCC(=O)N/N=C/c1cccn1C,·,i,4.4%
COc1ccc(C(CC(=O)O)NC(=O)c2ccco2)cc1 (stereo unspecified),·,i,3.6%
COc1ccc2c(c1)CCc1c(C(=O)NCCc3ccc(OC)c(OC)c3)noc1-2,2.2,i,2.9%
C=CCn1c(SCC(=O)O)nnc1-c1ccc(C(C)(C)C)cc1,0.7,i,-6.4%
C=CCn1c(NCCO)nc2sc3c(c2c1=O)CCC3,-0.4,i,1.0%
COc1ccc(C2=Nn3c(nnc3-c3cccnc3)SC2)cc1,0.3,i,2.0%
CCOC(=O)Cn1nnc(-c2ccc(OCC(C)C)cc2)n1,-0.5,i,-2.1%
O=C(CN1C(=O)CC(c2ccccc2)=Nc2ccccc21)NC1CCCCC1,·,i,-1.4%
O=C(c1cccs1)N1CCN(S(=O)(=O)c2ccccc2)CC1,·,i,0.4%
CN1C(=O)C2(C(C#N)=C(N)Oc3n[nH]c(-c4ccc(Cl)cc4)c32)c2ccccc21 (stereo unspecified),-0.68,i,4.6%
CC(CNC(=O)C1CCCCC1)NC(=O)C1CCCCC1 (stereo unspecified),0.5,i,-0.6%
O=C(CCN1C(=O)C2C3C=CC(C3)C2C1=O)NCCc1ccccc1 (stereo unspecified),-0.96,i,-5.9%
O=C(CCc1nc(-c2ccccc2)no1)NCC1CCCO1 (stereo unspecified),0.97,i,3.9%
CC(C)COC(=O)n1c(SCC(=O)N(C)C)nc2ccccc21,1.2,i,1.8%
Cc1nn2c(N3CCN(c4ccccn4)CC3)cc(C(C)C)nc2c1-c1ccccc1,0.1,i,1.3%
COc1ccc(Cn2c(CCCO)nc3ccccc32)cc1OC,0.29,i,-2.6%
COc1ccc(-c2cc(C(=O)NC3CCCC3)no2)cc1OC,0.17,i,2.6%
O=C(O)c1c(-c2ccccc2)c2oc3ccccc3c2[nH]c1=O,-0.13,i,0.1%
CC(NC(=O)Cn1cc2c(n1)CCCCC2)c1ccccc1 (stereo unspecified),-0.02,i,1.9%
CCOc1ccccc1C(=O)NCCCCCC(=O)O,0.9,i,-3.0%
CCCC1=C(C(=O)OCC)C(c2ccncc2)n2ncnc2N1 (stereo unspecified),·,i,-6.1%
O=C(CSc1nc2[nH]ncc2c(=O)n1-c1ccccc1)N1CCCc2ccccc21,-0.53,i,14%
CCc1ccccc1NC(=O)CN1C(=O)C2CCCN2c2ncc(Cl)cc21 (stereo unspecified),-0.55,i,-8.3%
O=C(NC1=NCCS1)NC12CC3CC(CC(C3)C1)C2,0.05,i,-3.7%
Cc1cnc(C(=O)Nc2cccc3cccnc23)cn1,0.45,i,-0.7%
O=S(=O)(c1ccc(Sc2nnc3ccccn23)nc1)N1CCOCC1,0.1,i,-2.4%
CCOc1ccc(C(=O)NCC(C)CN(C)C)cc1OCC (stereo unspecified),-1.2,i,1.9%
O=C(Nc1ccc2c(c1)OCO2)c1c(Cl)nc2sccn12,0.92,i,0.8%
CCCOc1ccc(-c2nc(C#N)c(NCCCn3ccnc3)o2)cc1,·,i,3.6%
C(=N\n1cnnc1)/c1ccc2ncccc2c1,1.2,i,9.4%

# Structures shown so far containing a furan ring, fused or not (2):
SMILES,WNV protease inh,MT1-MMP promoter,Hsc70 ATP site
COc1ccc(C(CC(=O)O)NC(=O)c2ccco2)cc1 (stereo unspecified),·,i,3.6%
O=C(O)c1c(-c2ccccc2)c2oc3ccccc3c2[nH]c1=O,-0.13,i,0.1%

# Going on with the list.
SMILES,WNV protease inh,MT1-MMP promoter,Hsc70 ATP site
Cc1cccc(C)c1NC(=O)CS(=O)CC(=O)NC1CCCc2ccccc21 (stereo unspecified),-0.6,i,2.7%
COc1ccc(CCNC(=O)CCn2c(=O)oc3ccccc32)cc1OC,-1.2,i,2.3%
COc1ccccc1C(=O)Nc1ccc(C(=O)O)cc1,-0.52,i,-2.0%
Cn1c(C(=O)N2CCCC(C(=O)NCCCc3ccccc3)C2)cc2sccc21 (stereo unspecified),1.3,i,1.3%
CC(=O)c1cccc(N=C2C(=O)Nc3ccccc32)c1,0.71,i,0.3%
CC(=O)NC(CCS(C)(=O)=O)C(=O)Nc1cccc(C)c1C (stereo unspecified),-0.84,i,9.0%
CCC(=O)Nc1nc2cc(OC)ccc2s1,-0.68,i,-0.3%
CC(C)(Oc1ccc(Cl)cc1)C(=O)Nc1ncccn1,-0.59,i,0.4%
CC1CC(NC(=O)c2cnc3n(c2=O)CCS3)CC(C)(C)C1 (stereo unspecified),-0.36,i,5.4%
CCCS(=O)(=O)N1CCCC(C(=O)NCCN2CCCCC2C)C1 (stereo unspecified),-1.2,i,0.9%
CCOC(=O)N1CCN(C(=O)c2nn(-c3ccc(C)cc3)c(=O)c3c2c2ccccc2n3C)CC1,-0.43,i,1.0%
CCOC(=O)CC(=O)CSC1=C(C#N)C(c2ccccc2OC)CC(=O)N1 (stereo unspecified),1,i,-1.0%
CC(C)Oc1ccc(C(=O)NCc2cccnc2)cc1,-0.7,i,-2.7%
CCC(=O)Nc1nc(C)cc(SCC(=O)OC)n1,1.2,i,-1.1%
CCCCC(=O)Nc1ccc(C(=O)NCc2ccncc2)cc1,0.35,i,1.0%
Cc1ccc(Cn2ccc(NC(=O)c3noc4c3CCCCC4)n2)cc1,-0.76,i,1.8%
Cc1ccc(OCC(=O)OC2CCS(=O)(=O)C2)cc1 (stereo unspecified),1.5,i,-4.9%
CCN(CC)S(=O)(=O)c1ccc2c(c1)c(C(=O)O)cn2C,0.36,i,1.8%
O=C(NO)c1ccc(OC(F)F)cc1,0.23,i,-0.4%
COc1cc(OC)c(C2N(c3cc(C)on3)C(=O)C3CCCN32)cc1OC (stereo unspecified),-0.97,i,-1.2%
CCCCNC(=O)c1cc2c(-c3ccc(Cl)cc3)nn(C)c2s1,-0.55,i,7.6%
Cc1c(C(=O)NCC2CCCO2)oc2ccc(S(=O)(=O)N3CC(C)CC(C)C3)cc12 (stereo unspecified),-1,i,1.6%
O=C(Cn1ncc2c1-c1ccccc1OC2)N1CCc2ccccc21,0.55,i,1.9%
C=CCOc1ccc(/C(O)=C2\C(=O)C(=O)N(CCCOC)C2c2ccc(O)c(OC)c2)cc1 (stereo unspecified),0.61,i,-2.1%
CC(Sc1nc(-c2ccccc2)cc(C(F)(F)F)n1)C(=O)N1CCC(C(N)=O)CC1 (stereo unspecified),-0.53,i,2.2%
CSCC[C@H](NC(=O)CCNC(C)=O)c1nc2ccccc2[nH]1,·,i,3.6%
COC(=O)[C@H](CC(C)C)NC(=O)NC1CCCCC1C (stereo partly specified),·,i,0.2%
Fc1ccc(C2C3=C(Nc4ncnn42)c2ccccc2OC3c2ccncc2)cc1 (stereo unspecified),0.8,i,5.0%
CC(NC(=O)C1C2C=CC(C2)C1C(=O)O)c1ccccc1 (stereo unspecified),-0.5,i,3.9%
Cc1cccc(NC(=O)c2c(C)cc(=O)oc2C)n1,-0.11,i,3.8%
CCOC(=O)N1CCC(Nc2c(NCCCN3CCN(c4ccc(OC)cc4)CC3)c(=O)c2=O)CC1,-0.65,i,1.6%
O=C1Nc2ccccc2C12OC1CCCCC1O2 (stereo unspecified),0.78,i,3.6%
Cc1cccc2cc(C#N)c(SCCN3CCCCC3)nc12,0.74,i,-5.1%
Cc1nc2nc(-c3ccccc3)cc(=O)n2[nH]1,-0.23,i,-6.9%
C/C(=C\C(=O)Nc1nccs1)c1ccccc1,0.38,i,-8.5%
CCOC(=O)c1oc2nc(C(C)C)c3c(c2c1N)CCC3,0.36,i,1.2%
COc1cccc(C2C(C(=O)c3sc(C)nc3C)=C(O)C(=O)N2CCN2CCOCC2)c1 (stereo unspecified),0.49,i,-0.7%
COc1ccc2cc3cc(C(=O)N4CCN(Cc5ccc6c(c5)OCO6)CC4)oc3nc2c1,0.18,i,5.7%
COc1cc(C2CC(=O)N3CN(c4ccccc4C)CSC3=C2C#N)cc(OC)c1OC (stereo unspecified),-0.7,i,-2.6%
CCCCOc1ccccc1C1CC(=O)NC2=C1C(=O)CCC2 (stereo unspecified),0.9,+,3.7%
CCOC1(C(F)(F)F)NC(=O)N(Cc2ccc(OC)cc2)C1=O (stereo unspecified),-0.85,i,-1.3%
COc1ccc(C(O)Cc2nc3ccccc3n2C)cc1OC (stereo unspecified),-0.54,i,3.1%
CCOc1ccccc1N(CC(=O)Nc1ccc2c(c1)OCO2)S(C)(=O)=O,0.2,i,2.3%
COc1ccc2c(C)cc(SCC(=O)c3ccc4c(c3)OCO4)nc2c1,·,i,4.4%
CC1c2[nH]c3ccccc3c2CCN1S(C)(=O)=O (stereo unspecified),1.6,i,-0.9%
CC(C)CSc1nnc2c(n1)[nH]c1ccccc12,·,i,-6.1%
COc1ccccc1C(=O)Nc1ccc(N2CCN(Cc3ccccc3)CC2)cc1,0.47,i,2.2%
O=C(c1cccs1)N1CCN(Cc2ccncc2)CC1,2.1,i,1.0%
O=C(COc1ccccc1O)Nc1ccccc1Cl,1.5,i,-6.6%
O=C1C=C(c2ccccc2)C[C@H](c2cccs2)[C@H]1n1cnc([N+](=O)[O-])c1,·,i,-0.2%
# Next section
SMILES,WNV protease inh,MT1-MMP promoter,Hsc70 ATP site
Cc1cc(C(=O)OCC(=O)Nc2ccc(F)cc2F)c(C)o1,0.63,i,3.8%
CC1(C(=O)NC2CCCCCCC2)CCC(=O)N1CCN1CCOCC1 (stereo unspecified),-0.31,i,-0.5%
COc1ccc(CC(=O)NC2CCN(CC(=O)Nc3ccc4c(c3)OCCO4)CC2)cc1OC,1.4,i,0.1%
CC(=O)NC(Cc1ccccc1)C(=O)NC1CCN(C(=O)NC2CCCCC2)CC1 (stereo unspecified),-0.32,i,-7.7%
CC(C)c1c(O)nc(SCC(=O)N2CCOCC2)[nH]c1=O,·,i,3.8%
O=C(NCC1CCCO1)c1coc2nc3ccccc3nc12 (stereo unspecified),-1,i,-4.0%
CSc1ccccc1NC(=O)c1cc(CC(C)C)on1,0.02,i,-7.7%
Cc1ccc(NC2c3ncccc3C(=O)N2c2ccccc2C)cc1C (stereo unspecified),-1.7,i,1.8%
CC(=O)Nc1ccc(-c2nnc(SCC(=O)Nc3ccc4c(c3)oc3ccccc34)n2C)cc1,·,i,-3.5%
Cc1cc(C(F)(F)F)nn1Cc1ccc(C(=O)NCc2ccco2)o1,0.01,i,-3.2%
COc1ccccc1C1(CC(=O)O)CCOC(C(C)C)C1 (stereo unspecified),1,i,3.4%
CC1CCN(CCCNC(=O)c2ccc(CS(=O)(=O)Cc3ccccc3F)o2)CC1,0.55,i,-4.3%
Cc1cc(Nc2cccc(F)c2)n2ncnc2n1,-0.16,i,3.1%
CCCCCn1c(CN2CCN(C)CC2)nc2c1c(=O)n(C)c(=O)n2C,-0.18,i,-2.5%
CNC(=O)COc1ccc(-c2nn(C)c(=O)c3ccccc23)cc1,·,i,1.6%
O=C(Cc1cccs1)N1CCCC(c2nc3c(nnn3Cc3ccccc3Cl)c(=O)[nH]2)C1 (stereo unspecified),1.5,i,11%
COC(=O)c1ccc(NS(=O)(=O)c2ccc(SC)cc2)cc1,-1.3,i,-0.1%

# Structural class, those above with an NH in an aromatic ring (twelve)
SMILES,WNV protease inh,MT1-MMP promoter,Hsc70 ATP site
O=C(CSc1nc(O)c(Cc2ccccc2F)c(=O)[nH]1)N1CCCCCC1,-1.6,i,3.7%
COCC(=O)N(Cc1ccc(OC)cc1)Cc1nc2ccccc2c(=O)[nH]1,0.95,i,-4.6%
Cc1c(C(=O)CN2CCOCC2)[nH]c2ccccc12,-0.94,i,-4.3%
CN1C(=O)C2(C(C#N)=C(N)Oc3n[nH]c(-c4ccc(Cl)cc4)c32)c2ccccc21 (stereo unspecified),-0.68,i,4.6%
O=C(O)c1c(-c2ccccc2)c2oc3ccccc3c2[nH]c1=O,-0.13,i,0.1%
O=C(CSc1nc2[nH]ncc2c(=O)n1-c1ccccc1)N1CCCc2ccccc21,-0.53,i,14%
CSCC[C@H](NC(=O)CCNC(C)=O)c1nc2ccccc2[nH]1,·,i,3.6%
Cc1nc2nc(-c3ccccc3)cc(=O)n2[nH]1,-0.23,i,-6.9%
CC1c2[nH]c3ccccc3c2CCN1S(C)(=O)=O (stereo unspecified),1.6,i,-0.9%
CC(C)CSc1nnc2c(n1)[nH]c1ccccc12,·,i,-6.1%
CC(C)c1c(O)nc(SCC(=O)N2CCOCC2)[nH]c1=O,·,i,3.8%
O=C(Cc1cccs1)N1CCCC(c2nc3c(nnn3Cc3ccccc3Cl)c(=O)[nH]2)C1 (stereo unspecified),1.5,i,11%
